Vaccinia mCherry: vaccinia inhibition (mCherry reporter). Vaccinia virus mCherry reporter infection, fluorescence; about a quarter of the inactives have no number. Potency, µM (titrated, usually from 36.5 µM), for inactives: top-dose activity change, negative = inhibition, hits mostly inhibitors. 0.63% of 310,000 active. AID 720579; active = well fitted inhibition curve with a large enough effect; inconclusive = small, poorly fitted or top-dose-only effect; inactive = no such curve, though single readings can be large or run the other way; tested in A549 cells; note: nearly all actives have a fitted effect of over 35% in size; inactives centre near -10
Vaccinia Venus: inhibitors of vaccinia virus (Venus reporter); 0.46% of 330,000 active; Vaccinia virus Venus reporter expression, fluorescence; Potency, µM (titrated, usually from 36.5 µM), for inactives: top-dose activity change, negative = inhibition, usual class: inhibitors; active means well fitted inhibition curve with a large enough effect; inconclusive means small, poorly fitted or top-dose-only effect; inactive means no such curve, though single readings can be large or run the other way; tested in A549 cells; note: nearly all actives have a fitted effect of over 30% in size; inactives centre near -10
Active calls of the source: *; i = inactive; ? = inconclusive; . = no result given; & = joins results of further samples; [ ] = another dose, or the depositor's remark. % is set by controls: 0 for no effect and ±100 for the full control effect; potency is the fitted concentration of half-maximal effect.

SMILES | Vaccinia mCherry | Vaccinia Venus
O=C(NCCc1ccccc1)C(=O)NCC1OCCCN1S(=O)(=O)c1cc(F)ccc1F (stereo not given) | -3.7% | -15.8%
Cc1cccc(Oc2ncnc(N)c2[N+](=O)[O-])c1C | -25.1% | -16.8%
CCOC(=O)C1=C(CSc2nc(-c3ccncc3)ccc2C#N)OC(N)=C(C#N)C1c1ccc(OC)cc1 (stereo not given) | . | -20.3%
O=C(O)CCN=Cc1c(O)c2ccccc2oc1=O | -1.6% | -23.4%
CCN(N=Nc1cccc([N+](=O)[O-])c1)c1cccc([N+](=O)[O-])c1 | -11.7% | -2.9%
S=C(NN=C1CCN(Cc2ccccc2)CC1)NC1CCCCC1 | -15.0% | 2.9%
Cc1cccc(C(C)C)c1NC(=O)C1CCCN1S(=O)(=O)c1cccc2nsnc12 (stereo not given) | -8.3% | ?
COc1ccccc1NC(=O)c1ccc2oc(=O)c(S(=O)(=O)c3ccccc3)cc2c1 | -8.1% | 4.2%
Cc1cccc(Cn2c(CN3CCC(C(=O)NCc4cccnc4)CC3)cc3ccccc32)c1 | -14.5% | -7.8%
N#C/C(=C\C=C\c1ccccc1)c1nc(-c2ccc(Cl)cc2)cs1 | i | -8.7%
COc1cc(C(=O)NCc2nnc(SCC(=O)Nc3nc4ccccc4s3)o2)cc(OC)c1OC | -9.1% | 5.5%
COc1ccccc1/C=C/CN1CCNC(=O)C1CC(=O)NCCc1cnccn1 (stereo not given) | -10.8% | -2.3%
Cc1ccc(CNC(=O)[C@@H](NC(=O)C2CCN(C(=O)[C@@H](N)CC(C)C)CC2)C(C)C)cc1 | 0.9% | -0.1%
CCN1C(=O)C(C(=O)NC(C)c2ccccc2)C2CC1(C)Oc1ccccc12 (stereo not given) | i | -7.9%
COc1ccc(NS(=O)(=O)c2ccc3nc(COc4ccc(Cl)c(C)c4)[nH]c3c2)cc1 | ? | ?
O=C(O)c1ccc(-n2c(-c3cc(C4CC4)[nH]n3)n[nH]c2=S)cc1 | -0.1% | -6.9%
Cc1ccccc1N(C(=O)CS(=O)CC(=O)Nc1ccc(F)cc1)C(C)C(=O)NC(C)(C)C (stereo not given) | -13.5% | -1.7%
COc1ccc2ccccc2c1/C=N/NC(=O)CC1(C)OCCCO1 | i | -4.4%
C/C=C(\C)C(=O)Nc1cccc(C2=NOC3(C2)C[C@H](C(N)=O)N(C(=O)C(c2ccccc2)c2ccccc2)C3)c1 (stereo not given in full) | -8.4% | ?
CC(C)(CNCc1ccccc1)NS(=O)(=O)c1ccc(Cl)cc1 | -6.6% | -15.1%

4 entries from above in a different format.
canonical_smiles	Vaccinia mCherry	Vaccinia Venus
CCN1C(=O)C(C(=O)NC(C)c2ccccc2)C2CC1(C)Oc1ccccc12 (stereo not given)	i	-7.9%
COc1ccc(NS(=O)(=O)c2ccc3nc(COc4ccc(Cl)c(C)c4)[nH]c3c2)cc1	?	?
O=C(O)c1ccc(-n2c(-c3cc(C4CC4)[nH]n3)n[nH]c2=S)cc1	-0.1%	-6.9%
Cc1ccccc1N(C(=O)CS(=O)CC(=O)Nc1ccc(F)cc1)C(C)C(=O)NC(C)(C)C (stereo not given)	-13.5%	-1.7%

More structures.
SMILES | Vaccinia mCherry | Vaccinia Venus
CCOC(=O)c1sc2ncnc(NCc3ccco3)c2c1C | . | -18.4%
N#Cc1ccc(CN2CCN(C(=O)CC(NC(=O)c3ccccc3)c3ccccc3)CC2)cc1 (stereo not given) | -21.0% | -2.9%
Cc1ccc(C(=O)c2cn(Cc3cc(C)ccc3C)c3nc(C)ccc3c2=O)cc1 | -6.4% | -18.2%
COC(=O)C1=C(c2ccc(S(C)(=O)=O)cc2)C[C@@H]2CC[C@H]1N2C(=O)N1CCCCC1 | i | 1.4%
Cc1cccc(N2CC(C(=O)Nc3ccc(S(=O)(=O)N4CCOCC4)cc3)CC2=O)c1C (stereo not given) | i | -10.8%
Cc1c(CNC2CCCCC2)c(C(=O)O)c(C)n1Cc1ccccc1F | -0.5% | -0.9%
O=C1c2ccccc2S(=O)(=O)N1CC1CC(c2ccc(Cl)cc2)=NO1 (stereo not given) | -20.0% | -11.5%
CCCc1c(CC)c(=N)c2ccccc2n1C | -22.1% | -23.3%
CCCCCn1c(SC(C)C(C)=O)nc2c1c(=O)[nH]c(=O)n2C (stereo not given) | 6.4% | -17.5%
Cc1ccc(C)c(S(=O)(=O)NCCCN2CCOCC2)c1 | i | -3.4%
O=C(NCC(c1ccc(F)cc1)N1CCOCC1)c1ccc(Br)o1 (stereo not given) | -12.1% | -12.4%
Cc1ccc(NC(=O)C2=NNC(=O)CC2)cc1F | i[7.34 µM] | -5.1%[7.34 µM]
Cc1cnc(N)nc1-c1ccccc1 | i | -9.6%
CCOC(=O)C1=C(C)NC(=O)NC1/C=C/c1ccccc1OC (stereo not given) | 2.4% | 1.4%
Fc1cccc(F)c1-c1nc2c(s1)CCc1onc(-c3ccc(Br)cc3)c1-2 | -8.6% | -6.5%
C[C@@H]1CCCN1[C@H]1CS(=O)(=O)N[C@@H]1COCc1ccccc1 | 32.0%[activator] | -10.0%
O=C(NCc1ccc(F)cc1)C1CCCN(C(=O)Nc2ccc(F)cc2)C1 (stereo not given) | -10.9% | -8.1%
CC(=O)c1ccc(NC(=S)Nc2ccc(Br)c(Cl)c2)cc1 | i | 0.9%
CCn1cc(C(=O)OCC(=O)N(C)C2CCS(=O)(=O)C2)c(=O)c2ccc(C)nc21 (stereo not given) | . | 12.3%
CCCCN=C1N/C(=C\c2ccco2)C(=O)N1c1ccccc1 | . | 11.3%

Reprinted at random: five entries already listed
SMILES | Vaccinia mCherry | Vaccinia Venus
CCCCN=C1N/C(=C\c2ccco2)C(=O)N1c1ccccc1 | . | 11.3%
O=C(NCC(c1ccc(F)cc1)N1CCOCC1)c1ccc(Br)o1 (stereo not given) | -12.1% | -12.4%
Cc1cccc(Oc2ncnc(N)c2[N+](=O)[O-])c1C | -25.1% | -16.8%
CCOC(=O)C1=C(CSc2nc(-c3ccncc3)ccc2C#N)OC(N)=C(C#N)C1c1ccc(OC)cc1 (stereo not given) | . | -20.3%
Cc1cccc(Cn2c(CN3CCC(C(=O)NCc4cccnc4)CC3)cc3ccccc32)c1 | -14.5% | -7.8%

(listing goes on)
SMILES | Vaccinia mCherry | Vaccinia Venus
Cc1ccc(S(=O)(=O)N2CCN(C(=O)CCc3nc4ccccc4c(=O)[nH]3)CC2)c(C)c1 | -9.0% | ?
COc1cccc(Cn2c(N)c(C#N)c3nc4ccccc4nc32)c1OC | -10.8% | -3.2%
NS(=O)(=O)OCC1CCCCC1 | -7.1% | -6.5%
C=CC(C1=CC(=O)C(OC)=CC1=O)c1ccc(O)cc1 (stereo not given) | i | -29.0%
CCN1CCN(C(=O)C(NS(=O)(=O)c2ccc3nc(C)sc3c2)C(C)C)CC1 (stereo not given) | 18.2% | -0.2%
COc1ccc(S(=O)(=O)N2CC=C(C(=O)NC3CCCC3)CC2)cc1 | -14.9%[7.34 µM] | -14.7%[7.34 µM]
Fc1ccc(Cc2cn3cc(-c4ccc(Cl)cc4)nc3s2)cc1 | -7.7% | -2.9%
CCc1nc2c(s1)CCc1onc(-c3ccc(Cl)cc3)c1-2 | ? | -11.6%
CN(CCO)C(=O)c1ccc(-c2nn(C)c(=O)c3ccccc23)cc1 | i | -18.9%
CC(C)COc1ccc(C(=O)Nc2scc(-c3ccc(Cl)cc3Cl)c2C(N)=O)cc1 | -9.6% | 2.8%
Cc1ccsc1C(=O)OCC(=O)N(Cc1ccccc1)C(C)C | -13.1% | 11.7%
O=C(CSc1nc2ccccc2[nH]1)Nc1nc(-c2ccc(Br)cc2)cs1 | ? | ?
CCc1nnc(NC(=O)c2ccc(S(=O)(=O)N(CCOC)CCOC)cc2)o1 | i | 0.2%
COc1ccc(CCNc2oc(COc3ccccc3)nc2C#N)cc1 | -28.9% | -9.2%
COc1cc(OC)cc(C(=O)N(Cc2cc3cc(C)ccc3[nH]c2=O)C(C)C)c1 | -5.1% | -17.7%
CCOc1ccc(NC(=O)CSc2ccc(-c3sc(-c4ccccc4)nc3C)nn2)cc1 | i | -9.3%
O=C(COC(=O)c1cccc(S(=O)(=O)NCc2ccccc2)c1)Nc1ccccc1OC(F)F | -12.5% | -5.1%
Cc1nc2ccccc2c(=O)n1-c1ccc(NC(=O)c2ccccc2[N+](=O)[O-])cc1 | -5.1% | -3.7%
C=CCOn1c(-n2nc(C)cc2C)nc2ccccc2c1=O | -14.2% | -6.9%
COc1ccc(CN=C(Nc2ccccc2)SC2CC(=O)N(C)C2=O)cc1 (stereo not given) | -22.2% | -6.8%
Cc1occc1C(=O)NCCN1Cc2ccccc2OC(c2ccccc2F)C1 (stereo not given) | -8.8% | 2.1%
COc1ccc(OC)c(CNC(=O)C2CCCN(c3ncnc4c3nc3n4CCCCC3)C2)c1 (stereo not given) | -13.8% | -22.6%
Cc1ccc(N=Nc2c(N)n(-c3ccccc3)[nH]c2=O)cc1 | -7.0%[1.46 µM] | -27.9%
O=C(Nc1nc2ccc([N+](=O)[O-])cc2s1)C1CCCO1 (stereo not given) | 0.0% | -23.5%
O=C(Nc1cccc2ccccc12)NC(Cc1ccccc1)C(=O)O (stereo not given) | -15.4% | -13.0%
COc1cccc(C2=NOC(C(=O)Nc3cccnc3Cl)C2)c1 (stereo not given) | -3.4% | -14.7%
Cc1ccc(-n2c(C)cc(/C=N/NC(=O)CN(c3ccc(C)cc3C)S(C)(=O)=O)c2C)cc1 | . | -11.3%
CSc1ccc(C2=C/C(=C3/SC(=S)NC3=O)c3ccccc3O2)cc1 | -0.6% | 4.1%
CN(C)c1nc2sc3c(c2c(=O)n1C)CC(C)(C)OC3 | . | -7.8%
CCOC(=O)N1CCc2c(sc(N)c2C#N)C1 | ? | -10.9%
CCCCn1c(CCNC(=O)c2cccs2)nc2ccccc21 | 3.9% | 0.0%
Cc1cc(NC(=O)CSc2sc3c(O)cc(=O)[nH]c3c2C#N)ccc1Br | i | 2.3%
CCC(C)Nc1nc(N)c([N+](=O)[O-])c(Nc2cc(OC)ccc2OC)n1 (stereo not given) | -20.4%[7.34 µM] | -26.9%[7.34 µM]
c1ccc(CCC2=NCCn3cccc32)cc1 | -8.0%&-5.6% | -4.5%&-2.3%
CC(=O)Nc1cc(C(=O)OCc2cccc([N+](=O)[O-])c2)ccc1C | -10.4% | -9.7%
COCC(=O)Nc1cccc(C(F)(F)F)c1 | -19.7% | ?
CCCN(CCC)CCCNC(=O)c1nn(C)c2c1CS(=O)(=O)c1ccccc1-2 | -0.3% | -4.6%
COCc1cccc(-c2csc(C(NC(C)=O)c3cccc(OC)c3)n2)c1 (stereo not given) | 22.1% | -1.9%
Cc1ccc(S(=O)(=O)Nc2ccc(Nc3nccn4c(-c5ccccc5Oc5ccccc5)cnc34)cc2)cc1 | -16.5% | -2.0%
CC(=O)N1c2ccc(S(=O)(=O)N(C)Cc3ccco3)cc2CC1C (stereo not given) | -5.4% | 3.5%
COc1cc(NS(=O)(=O)c2ccc(NC(=O)/C(=C\c3ccccc3OC)NC(=O)c3ccccc3)cc2)nc(OC)n1 | -12.9% | -16.8%
O=C(Nc1cccc(F)c1)NC1CCCCCCC1 | -10.8% | -13.6%
COC(=O)CN1C(=S)N(c2ccc(F)cc2)C(=O)C1CC(=O)Nc1ccc(F)cc1 (stereo not given) | -2.0% | 20.4%
Cc1ccccc1C(=O)NC(=S)NCc1ccccc1 | -22.7% | -27.7%
CCOC(=O)C1CCN(S(=O)(=O)c2cccc(-c3cn4cc(C)ccc4n3)c2)CC1 | -1.1%[1.46 µM] | ?
COc1cccc(C(=O)C2CCCN(Cc3ccon3)C2)c1 (stereo not given) | -6.3% | -4.5%
Cc1c(NC(=O)c2c(N)sc3c2CCCC3)c(=O)n(-c2ccccc2)n1C | 0.0% | -9.9%
Cc1ccc(-n2nc(CO)c(C(=O)NC(C)c3ccccc3)n2)cc1C (stereo not given) | -10.2% | -22.5%
CC(C)(C)c1ccccc1NC(=S)NCc1ccccc1 | i | -8.6%
COc1cc(C2c3cc(O)c(OC)cc3CC3C(=O)OCC32)ccc1O (stereo not given) | 3.6% | -4.7%
c1ccc(CCCCN2CCC(c3ccccc3)CC2)cc1 | -10.1% | -19.8%
CSc1ccc(/C=N/Nc2nc(C)cc(=O)[nH]2)cc1 | -7.7% | -7.0%
O=C(COC(=O)Cc1ccc(Cl)cc1)Nc1cc(S(=O)(=O)N2CCOCC2)ccc1N1CCCC1 | i | -2.5%
CC1=CC(=NOS(=O)(=O)c2ccc(C)cc2)CC(C)(C)C1 | -17.8% | -3.1%
O=C(O)c1ccc(S(=O)(=O)c2ccc3c(c2)C(=O)N(NC(=O)c2ccncc2)C3=O)cc1 | 6.9% | -5.2%
COCCCNC(=O)CN(c1cc(Cl)ccc1OC)S(=O)(=O)c1ccc(C)c([N+](=O)[O-])c1 | ? | -5.7%
COc1cccc(NC(=O)c2nc3nc(C)cc(C(F)F)n3n2)c1 | -8.6% | -5.3%
CC[N+](CC)(CC(=O)Nc1c(C)cccc1C)Cc1ccccc1 | -13.1% | -3.6%
CCOc1ccccc1N(CC)C(=O)c1noc2c1COc1ccc(C)cc1-2 | -17.5% | -5.9%
CC1=CC(=O)C2=C(C)CC[C@@H]3[C@H](OC(=O)[C@H]3C)[C@@H]12 | -3.0% | -9.6%
CO/N=C(\N)c1ccc([N+](=O)[O-])cc1 | i | -3.5%
CC(C)C(c1nnnn1Cc1ccco1)N1CCN(c2cccc(Cl)c2)CC1 (stereo not given) | ? | ?

High-throughput results from PubChem.

Not a hit list, and some 0.87% of all compounds hit somewhere here.
